Assay outcomes: PubChem, several laboratories
UUG fidelity = modulators of start codon recognition fidelity in yeast | S. cerevisiae UUG-firefly luciferase reporter, luminescence/redox ratio | activity score, % at 18.7 µM | actives 0.13% (n = 350,000) | AID 602363;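 active = replicate mean at a twofold rise or more, about +100% in these data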;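 also: firefly luciferase made from a UUG start codon reports start codon fidelity; reporter light over untreated wells divided by growth signal over untreated wells; some hits fall short of that in this replicate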
PABP polyA inh = blocks human PABP binding to poly(A) RNA. fluorescence polarization. inhibition, % at 35 µM. actives 1% (n = 290,000). AID 2014;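 active = 50% or more with normal probe brightness, or confirmed in later tests; about a fifth of its hits are not listed in these tables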;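 also: calls also rest on retests at 20 µM and on dose response follow-up; controls were probe without protein and protein plus probe with vehicle; some compounds called inactive have numbers as strong as hits; many hits fall short of the cut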
Target sequence (P11940 whole entry, looked up): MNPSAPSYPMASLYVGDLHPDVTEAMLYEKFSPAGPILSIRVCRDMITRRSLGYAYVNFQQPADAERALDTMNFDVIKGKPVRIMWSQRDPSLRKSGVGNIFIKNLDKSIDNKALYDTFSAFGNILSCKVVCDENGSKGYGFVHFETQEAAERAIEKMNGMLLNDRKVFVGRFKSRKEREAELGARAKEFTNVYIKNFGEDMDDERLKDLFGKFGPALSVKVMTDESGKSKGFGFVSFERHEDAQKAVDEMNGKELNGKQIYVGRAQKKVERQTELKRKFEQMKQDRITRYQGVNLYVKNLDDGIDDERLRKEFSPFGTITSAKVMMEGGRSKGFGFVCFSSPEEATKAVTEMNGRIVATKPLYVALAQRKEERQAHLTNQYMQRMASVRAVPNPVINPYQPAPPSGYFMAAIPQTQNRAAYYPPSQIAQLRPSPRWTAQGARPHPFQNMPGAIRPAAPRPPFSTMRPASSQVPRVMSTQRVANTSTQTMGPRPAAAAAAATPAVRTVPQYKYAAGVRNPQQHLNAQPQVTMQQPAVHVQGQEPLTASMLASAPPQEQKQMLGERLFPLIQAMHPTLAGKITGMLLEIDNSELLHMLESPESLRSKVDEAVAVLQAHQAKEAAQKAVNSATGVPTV
eIF4H FP inh = inhibitors of RNA binding by human eIF4H | eIF4H fluorescence polarization binding assay | AID 2012 | inhibition, % at 35 µM | Q15056 | actives 0.94% (n = 290,000);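 active = 50% or more with normal probe brightness, or confirmed in later tests; about a fifth of its hits are not listed in these tables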;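 also: calls also rest on retests at 20 µM and on dose response follow-up; 0% = protein and probe with vehicle and 100% = probe without protein; strong numbers were not always called active; many hits fall short of the cut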
MT1-MMP act inh = MT1-MMP (human) activation inhibition. GFP/RFP ratio change, % at 20 µM. HT1080 RFP-PRO-GFP cells, GFP/RFP ratio fluorescence, overnight; percent of plate control window, DMSO zero. P50281. actives 0.061% (n = 360,000);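 active = GFP/RFP ratio change of at least 30% with cell ATP level not reduced by more than half and red fluorescence within 50% of control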; also: strong numbers were not always called active
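Compound: 20 µM single dose, 1% DMSO / System: HT1080 RFP-PRO-GFP cells / Controls: DMSO and RFP-L50D-GFP cell wells / Read-out basis: GFP/RFP fluorescence ratio / Schedule: overnight compound exposure at 37 °C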
Env fusion inh = HIV envelope-mediated fusion inhibition; HeLa-JRFL Env/CEM21 cell fusion, luciferase; inhibition, % at 12.3 µM; actives 1.1% (n = 360,000); AID 651610;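 active = mean replicate inhibition score of at least 50 and every replicate individually at or above 50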;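 also: 0% = plate neutral controls and 100% = maraviroc near 300 nM; one replicate is shown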
CSC inhib = cancer stem cell inhibition. inhibition, % at 7.5 µM. cancer stem cell-like cells viability, luminescence. actives 1.1% (n = 300,000);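 active = mean at 75% or more and at least half the replicates too; tested in HMLE shEcad cells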;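 also: 0% = median of negative and 100% = median of positive control wells; the first replicate is given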
Rce1 inh = yeast Ras-converting enzyme inhibition; calls only; actives 0.27% (n = 290,000); AID 2563; yeast membranes, quenched prenylated peptide cleavage fluorescence; Q03530;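 active = fall in fluorescence gain of 50% or more versus controls, with final raw signal at or below 3038400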;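 also: plate controls were neutral control wells for no effect and wells lacking membranes for full effect; tested at 10 µM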
Target sequence (Q03530 whole entry, looked up): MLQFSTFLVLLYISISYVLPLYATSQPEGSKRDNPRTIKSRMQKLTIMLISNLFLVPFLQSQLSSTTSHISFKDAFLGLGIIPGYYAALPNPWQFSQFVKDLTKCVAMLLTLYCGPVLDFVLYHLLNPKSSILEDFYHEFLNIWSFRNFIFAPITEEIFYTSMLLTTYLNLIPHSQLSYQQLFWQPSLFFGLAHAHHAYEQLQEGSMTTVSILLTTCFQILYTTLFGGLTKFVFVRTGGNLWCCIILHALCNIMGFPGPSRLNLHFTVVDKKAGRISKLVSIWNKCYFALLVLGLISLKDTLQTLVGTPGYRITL
MT1-MMP act inh RFP = second read-out of MT1-MMP act inh, no call of its own (marks repeat the call); RFP signal change, %; measured here: RFP expression control read;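 0 = vehicle wells; hits needed this value within 50% of zero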
Starred values were filed as active, the others as inactive; i = inactive; . = no result given; + = active, no number. This is a subset (hit frequency here may not be typical).

#	SMILES	Env fusion inh	Rce1 inh	MT1-MMP act inh	CSC inhib	eIF4H FP inh	PABP polyA inh	UUG fidelity	MT1-MMP act inh RFP
1	Nc1ccccc1SC(CC(=O)c1ccccc1)c1cccc([N+](=O)[O-])c1 (configuration not stated)	-118	.	-5	.	.	.	-31	-3
2	CC1(NC(=O)c2ccccc2)CCN(CCCc2ccccc2)C1=O (configuration not stated)	2	.	4	-4	.	.	-14	1
3	O=C(Cc1ccc(S(=O)(=O)N2CCOCC2)s1)NC1CCCCC1	9	.	0	.	.	.	-7	2
4	O=C(NCc1nnc(SC/C=C/c2ccccc2)o1)c1ccco1	-50	i	0	1	0	-5	-16	-2
5	Cc1ccccc1NC(=O)Nc1ccccc1C(=O)NCc1ccccc1	.	i	11	-8	-10	5	-5	-2
6	Cc1ccc(C(=O)n2nc(-n3cccc3)c3c(C)cc(C)nc32)cc1	-5	i	4	.	-5	5	.	4
7	Nc1cccc2nc3ccccc3cc12	.	+	0	.	4	-1	10	6
8	CC12CCC(C(=O)Nc3cccnc3)(CC1=O)C2(C)C (configuration not stated)	-42	i	0	.	-4	-10	-9	3
9	CN(C)/C=C(/C(=O)c1ccc(Cl)cc1)S(=O)(=O)c1ccccc1	-126	i	-1	5	5	1	-13	4
10	CC[n+]1c(-c2ccc(C)cc2)csc1Nc1c(C)n(C)n(-c2ccccc2)c1=O	9	i	-1	-5	-2	7	1	-8
11	CC(C)(C)c1ccc(CC(=O)N2CCC2(C)C(=O)NS(=O)(=O)c2ccccc2)cc1 (configuration not stated)	-21	.	1	.	.	.	2	2
12	O=C1NCCN1Cc1ccccc1F	-43	i	-1	-1	3	1	-12	-5
13	COc1ccc(NC(=O)CCCc2c[nH]c3ccccc23)cc1OC	-9	i	2	-11	9	-4	.	4
14	OCCn1c(SC2CCCCC2)nc2ccccc21	24	i	5	-6	-4	6	-8	7
15	Cc1ccc(SCCNC(=O)c2ccc([N+](=O)[O-])c(C)c2)cc1	4	i	0	11	7	1	-1	-1
16	CC(=O)OCC#CCSc1nc2ccccc2n1C	.	i	3	-4	12	10	-37	8
17	CCCCSCCCNC(=O)c1ccc(CS(=O)(=O)c2ccccc2OC)o1	17	i	4	-9	10	12	-1	3
18	Cc1cc(NC(=O)c2ccc([N+](=O)[O-])cc2)n(C)n1	-11	i	2	-14	-10	-11	-6	5
19	CCC(C)Sc1ccc([C@H]2N[C@@](Cc3ccccc3)(C(=O)OC)[C@H]3C(=O)N(C)C(=O)[C@@H]23)cc1 (some centres not stated)	-8	i	0	39	.	.	30	-8
20	COC(=O)c1cn(Cc2cccnc2)c(=O)c2ccccc12	2	i	4	8	-1	19	5	0
21	Cc1cc(C)cc(C(=O)Nc2nc3ccccc3[nH]2)c1	-103	i	7	18	5	2	-23	1
22	Cc1cc(C(=O)Nc2c(F)cc(F)cc2Br)n(-c2ccccc2)n1	10	i	6	-4	-9	2	-8	4
23	Cc1ccc(C(=O)COC(=O)c2ccco2)cc1C	-6	i	0	-1	-5	-5	-49	5
24	CCC(C(=O)OCC(=O)NC(=O)c1ccccc1)c1ccccc1 (configuration not stated)	-9	i	4	3	.	.	.	7
25	CCOC(=O)c1c(NC(=O)CN2C(=O)NC3(CCC(C)CC3)C2=O)sc(C)c1-c1ccc(C)cc1 (configuration not stated)	-24	i	3	-2	7	6	-5	5
26	CN(C)S(=O)(=O)c1ccc(NC(=O)c2ccc([N+](=O)[O-])cc2)cc1	6	i	7	.	-1	-6	-5	-2
27	CCC1(c2ccccc2)NC(=O)N(CC(=O)N(C)CC(=O)Nc2cccc(OC)c2)C1=O (configuration not stated)	-6	i	1	3	.	.	.	0
28	Fc1ccc(C2CC(c3ccccc3)Nc3ncnn32)cc1 (configuration not stated)	-15	i	-1	.	0	2	-23	5
29	COc1ccc(CCNC(=O)Cn2c(=O)cnc3ccccc32)cc1	.	i	3	-2	9	-2	8	1
30	CCOC(=O)c1c(CSc2nc(C)cc(C)c2C#N)n(C)c2cc(Br)c(OC(C)=O)cc12	-14	i	-8	6	-1	-6	.	-30
31	O=C(Nc1ccc(-n2cnnn2)cc1)c1cccc(S(=O)(=O)N2CCCC2)c1	0	.	2	.	.	.	-18	-2
32	C/C(=N\NC(=O)C(O)c1ccccc1)c1ccc(Br)s1 (configuration not stated)	1	i	1	0	-5	-3	-9	1
33	Cc1ccc(OCC(=O)Oc2ccc(C(C)C)cc2)cc1	-1	i	1	-13	1	9	5	0
34	CC1CCN(S(=O)(=O)c2ccc3nc(-c4ccccn4)cc(C(=O)NCCN(C)Cc4ccccc4)c3c2)CC1	3	i	0	.	6	2	.	-2
35	COc1cccc(CNC(=O)CCC2CCCN(Cc3cc4ccccc4o3)C2)c1 (configuration not stated)	25	i	11	8	3	-13	.	-4
36	COCCC(=O)N1CCC(Oc2ccc(C(=O)N3CCCCC3CCO)cc2)CC1 (configuration not stated)	9	i	3	-1	-20	-1	-5	5
37	O=C(CSc1nnc(NC(=O)c2ccccc2F)s1)NCc1ccc(F)cc1	-109	i	-7	1	7	-5	-12	-1
38	Cc1ccc(NC(=S)N(CCCN2CCCC2)Cc2cccn2Cc2ccc(Cl)cc2)cc1	7	i	-8	38	4	12	-13	-16
39	CC(C(=O)N1CCOCCOCCOCCOCCOCC1)N1C(=O)c2ccccc2C1=O (configuration not stated)	9	i	3	6	11	13	.	-2
40	Cc1cc2c(cc1S(=O)(=O)N(C)C1CCCCC1)OCC(=O)N2	3	i	3	5	-1	5	-11	-2
41	CCC(=O)Nc1nc2c(c(=O)[nH]1)CCCC2	3	i	0	17	7	3	.	1
42	Cc1cccc(NC(=O)c2ccc3c(c2)C(=O)N(c2ccccc2C)C3=O)n1	-7	i	-2	-5	.	.	-11	-1
43	O=C(CSC1CC(=O)N(c2ccc(C(=O)O)cc2)C1=O)Nc1ccc(Cl)cc1 (configuration not stated)	-11	i	1	0	9	-4	.	5
44	Cc1onc(-c2ccccc2Cl)c1C(=O)OCc1nnc(-c2ccccc2)o1	14	i	-1	1	.	.	-4	-7
45	CC(=O)NC(CCS(C)(=O)=O)C(=O)Nc1c(C)cccc1C (configuration not stated)	3	i	-3	0	-7	-15	-13	-1
46	CC(C(=O)NC(=O)NC1CCCCC1)N1CCN(c2ccc(O)cc2)CC1 (configuration not stated)	11	.	-1	.	.	.	-12	3
47	CN1CCN(c2c([N+](=O)[O-])cnc3ccccc23)CC1	-7	i	0	-12	.	.	-19	-3
48	O=C(CN1CC(=O)Oc2ccccc21)OCC(=O)c1cccc(Br)c1	.	i	-1	16	20	6	-18	2
49	COc1cc(OC)cc(C(=O)NNC(=O)CNC(=O)c2cccs2)c1	.	.	-2	-13	.	.	3	3
50	CN(C)c1ccc([C@@H]2[C@@H]([N+](=O)[O-])[C@H]3C=Cc4ccccc4N3[C@H]2C(=O)c2ccc(Cl)cc2)cc1	18	.	-15	6	4	44	6	3
51	O=C(Oc1ccc2c(c1)CCC2)N1CCOCC1	-69	i	2	-5	-4	-5	-5	5
52	NS(=O)(=O)c1ccc(CCNC(=O)c2cc(-c3ccccn3)nc3ccc(Br)cc23)cc1	18	i	-1	9	9	24	.	-6
53	O=C(c1cccs1)N1CCC(c2nc3c(nnn3Cc3c(Cl)cccc3Cl)c(=O)[nH]2)CC1	-5	i	-6	.	18	7	-1	-4
54	O=C(Nc1ccc2c(c1)CCCN2C(=O)c1ccco1)c1cc([N+](=O)[O-])ccc1Cl	-9	i	2	-17	.	.	-14	-6
55	O=C(Nc1ccccc1N1CCOCC1)c1cccnc1Cl	11	i	-2	-12	4	5	.	0
56	O=C(Oc1ccc2c(c1)OCO2)c1ccncc1	.	i	0	.	1	6	-8	-2

The listing continues:
#	SMILES	Env fusion inh	Rce1 inh	MT1-MMP act inh	CSC inhib	eIF4H FP inh	PABP polyA inh	UUG fidelity	MT1-MMP act inh RFP
57	CC(=O)c1c(C)[nH]c(C(=O)OCc2ccc(F)cc2Cl)c1C	19	i	-11	-2	4	20	0	-29
58	O=C(CSc1nccn1-c1ccc(F)cc1)Nc1ccc2c(c1)OCO2	.	i	0	-13	-6	-1	-16	-6
59	COc1cc2c(cc1OC)C(C(=O)Nc1ccc3c(c1)OCCO3)C1c3ccccc3CCN1C2=O (configuration not stated)	1	i	6	16	-2	7	-3	-6
60	CC(C)(CO)Nc1nc(Nc2ccccc2)nc(Nc2ccccc2)n1	.	i	4	12	-5	-15	-16	-1
61	CCN(CC)c1ccc(NC(=O)C2CC(=O)N(Cc3ccccc3)C2)cc1 (configuration not stated)	37	i	-1	-6	-4	-5	.	-6
62	CCOc1cccc2sc(N3CCN(C(=O)c4ccc5ncsc5c4)CC3)nc12	.	i	6	-14	.	.	.	-6
63	Cc1ccccc1OCCN1C(=O)NC2(CCc3ccccc32)C1=O (configuration not stated)	16	.	3	-11	-8	-9	-13	-1
64	CC1C(=O)C(C)C(c2cc(Br)ccc2O)NC1c1cc(Br)ccc1O (configuration not stated)	24	.	6	.	.	.	-22	0
65	Cc1csc2ncnc(N3CCN(S(=O)(=O)c4cccc(C(F)(F)F)c4)CC3)c12	57*	i	-1	3	0	5	-7	-25
66	CC(C)(C)c1ccc(S(=O)(=O)NC(=O)C2(C)CCN2C(=O)CC2CC2)cc1 (configuration not stated)	1	.	1	.	.	.	-4	5
67	Cc1ccc(Nc2nnc(SCC(=O)Nc3cc(C(=O)O)ccc3C)s2)c(C)c1	-13	i	4	-7	1	6	-7	3
68	Cc1cccc(C(=O)N[C@H](C(=O)Nc2nccs2)C(C)C)c1	-7	i	1	-19	-3	19	-16	2
69	CCOc1ccc(Cc2nn[nH]n2)cc1	.	i	4	-21	-1	13	-27	0
70	Cc1ccc(OCc2cc(C(=O)N(C)CC3CCOCC3)no2)cc1C	-88	i	-3	6	-12	3	-2	-6
71	COc1cc(NC(=O)Cc2ccc(OC)c(S(=O)(=O)N3CCOCC3)c2)c(OC)cc1Cl	7	i	-8	-48	9	47	1	-5
72	CCC1(c2ccccc2)NC(=O)N(CC(=O)Nc2cc(S(=O)(=O)N3CCOCC3)ccc2OC(C)C)C1=O (configuration not stated)	16	i	1	-5	.	.	9	3
73	CC(CC(=O)N1CCN(S(=O)(=O)c2ccccc2)CC1)n1cncn1 (configuration not stated)	-4	i	0	3	-3	9	-12	3
74	Cc1nn(CCCC(=O)NCc2ccc(F)cc2)c(C)c1[N+](=O)[O-]	-1	i	1	-8	2	-2	-7	8
75	Cc1cc(OCC(O)CN2CCOCC2)cc(C)c1Cl (configuration not stated)	-3	i	-2	4	5	-2	-17	-1
76	COCCNC(=O)NC(=O)COC(=O)c1cccn1C	1	i	5	-10	13	-5	.	4
77	O=C(Nc1ccccc1Cl)Nc1cccc2cccnc12	-64	i	0	12	-5	0	-12	-4
78	COc1ccc(NC(=O)c2ccc(OCc3c(C)noc3C)c(OC)c2)cn1	12	i	4	-3	8	29	.	-2
79	COc1ccc(-c2noc(CCC(=O)N3CCN(c4cccc(C)c4C)CC3)n2)cc1	4	.	2	.	.	.	-18	2
80	O=C(NCC1CCCCC1)c1ccc2sc([C@H]3C[C@H](O)[C@@H](CO)O3)nc2c1	3	.	2	.	.	.	-10	-1

In a second layout: entries from further up
[77] O=C(Nc1ccccc1Cl)Nc1cccc2cccnc12
[78] COc1ccc(NC(=O)c2ccc(OCc3c(C)noc3C)c(OC)c2)cn1
[79] COc1ccc(-c2noc(CCC(=O)N3CCN(c4cccc(C)c4C)CC3)n2)cc1
[80] O=C(NCC1CCCCC1)c1ccc2sc([C@H]3C[C@H](O)[C@@H](CO)O3)nc2c1

assay / entry	77	78	79	80
Env fusion inh	-64	12	4	3
Rce1 inh	i	i	.	.
MT1-MMP act inh	0	4	2	2
CSC inhib	12	-3	.	.
eIF4H FP inh	-5	8	.	.
PABP polyA inh	0	29	.	.
UUG fidelity	-12	.	-18	-10
MT1-MMP act inh RFP	-4	-2	2	-1
